VACV Venus inh = vaccinia inhibition (Venus reporter); Vaccinia virus Venus reporter expression, fluorescence; AID 720580; Potency, µM (doses to about 36.5 µM), for the others: at the top dose activity change, negative = inhibition, hits mostly inhibitors; actives 0.46% (n = 330,000); active means well fitted inhibition curve with a large enough effect; inconclusive means small, poorly fitted or top-dose-only effect; inactive means no such curve, though single readings can be large or run the other way; tested in A549 cells; also: nearly all actives have a fitted effect of over 30% in size; inactives centre near -10
Vaccinia mCherry = vaccinia inhibition (mCherry reporter); Vaccinia virus mCherry reporter infection, fluorescence; about a quarter of the inactives have no number; Potency, µM (series often up to 36.5 µM), without a hit: at the highest dose activity change, negative = inhibition, hits mostly inhibitors; actives 0.63% (n = 310,000); active = well fitted inhibition curve with a large enough effect; inconclusive = small, poorly fitted or top-dose-only effect; inactive = no such curve, though single readings can be large or run the other way; tested in A549 cells; also: nearly all actives have a fitted effect of over 35% in size; inactives centre near -10
Active calls of the source: *; i = inactive; ? = inconclusive; . = not tested or not shown; [ ] = dose if it differs, or a comment. % is scaled to controls: 0 for no effect and ±100 for the full control effect; potency is read from the fitted curve at half-maximal effect.

SMILES	VACV Venus inh	Vaccinia mCherry
CCOc1ccc(-c2cc(C(=O)N3CCN(c4ccccn4)CC3)c3ccccc3n2)cc1	?	?
COc1ccc(-c2nc3ccccc3s2)cc1NC(=O)c1ccc(F)cc1	?	?
Cc1cc(Cl)cc2sc(=S)[nH]c12	1%	-29%
Cc1ccc(OCCn2c(CCNC(=O)C(C)C)nc3ccccc32)cc1	-23%	.
O=[N+]([O-])c1cc(NS(=O)(=O)c2ccc(Cl)nc2)ccc1Cl	-17%	?
O=C(O)[C@H]1/C(=C/CO)O[C@@H]2CC(=O)N21	-6%	i
S=C(NCCCN1CCOCC1)Nc1ccc(-c2nc3ccccc3[nH]2)cc1	-7%	0%
CCc1ccc(C2C(C(C)=O)=C(C(=O)OC)Nc3nnnn32)cc1 (stereo not drawn)	-15%	-19%
CCSc1nc2sc3c(c2c(=O)n1-c1ccc(C)c(Cl)c1)CCN(C(C)=O)C3	0%	-5%
Cc1ccc(-c2nnc(N3CCN(c4ccccn4)CC3)c3ccccc23)cc1	18µM*	11µM*
O=C(CSc1nccn1Cc1ccc(F)cc1)NCc1ccccc1	-9%	i
CSCCC(NC(=O)COc1ccccc1)C(=O)N(C)CC(=O)Nc1ccc(Cl)cc1 (stereo not drawn)	-18%	5%
O=C(c1ccco1)N1CCc2[nH]nc(-c3ccc(Cl)cc3)c2C1	-25%	-4%
Cc1ccc(C2=Nc3ccccc3N=C(c3ccc(F)cc3)C2)c(O)c1	-1%	-15%
CCSc1nc2c(c(=O)[nH]c(=O)n2C)n1CC(O)COc1ccccc1 (stereo not drawn)	-14%	?
CC(C)NC(=O)C1(C)CCCN1C/C=C/c1ccccc1 (stereo not drawn)	-7%	i
CN(Cc1nc2ccccc2n1C)C(=O)c1ccco1	-1%	i
CCOC(OCC)P(=O)(O)CCCN	-6%	i
CC(C)C[C@H]1CNC(=S)N1CC1CCCN1C[C@H](CC(C)C)N1C[C@H](CC(C)C)N(CCc2ccccc2)C1=S (stereo partly drawn)	-23%	-13%
CCN(CC(=O)NCc1ccc(F)cc1)C(=O)CN1CCN(c2ccccc2OC)CC1	-13%	0%
C(=N\N1CCN(Cc2cccc3ccccc23)CC1)/c1cccs1	11%	-6%
Cc1ccc(/C([O-])=C(/C(=S)NCc2ccccc2)[n+]2cccc(CO)c2)cc1[N+](=O)[O-]	-13%	i
NS(=O)(=O)c1ccc(NC(=S)N2CCN(c3cccc(Cl)c3)CC2)cc1	-25%	-1%
COc1ccccc1C(=O)N1CCNC(=O)C1CC(=O)Nc1cccc(C)c1 (stereo not drawn)	-6%	-13%
CCOC(=O)c1ccc(NC(=O)c2c(-c3c(F)cccc3Cl)noc2C)cc1	-8%	-2%
SMILES	VACV Venus inh	Vaccinia mCherry
CCc1ccc(NC(=O)C2CCN(S(=O)(=O)c3c(C)noc3/C=C/c3ccco3)CC2)cc1	-11%	-7%
CCN1CCN(CC2CC3C=CC2C3)CC1 (stereo not drawn)	-4%	-14%
COc1ccc(-c2nc3c(C)cc(Br)cn3c2CC(C)(C)C)cc1OC	2%	46%[activator]
CC(C)Oc1ccc(CCC(=O)NNC(=S)Nc2ccccc2)cc1	-10%	?
COc1cccc(COc2ccc3c(C)c(Cc4ccccc4)c(=O)oc3c2)c1	-26%	-9%
COc1ccc(CCNC(=O)CCOc2ccc(C(C)(C)C)cc2)cc1OC	-17%	-7%
C=C1C=C(C)n2ncc(C(=O)Nc3ccccc3C(=O)OC)c2N1	-15%	-11%
O=C(COC(=O)CCNS(=O)(=O)c1ccccc1)NC(=O)c1ccccc1	-14%	-13%
C=CCn1c(=N)n(CC(=O)OCC)c2ccccc21	-5%	-11%
CCCCc1cc(=O)oc2cc(O)cc(O)c12	-2%	i
Nc1ccc(CNC(=O)c2cc3cc(Cl)ccc3nc2N)cc1	?	-27%
COc1cc(C(=O)N[C@H](C(=O)NC(C)C23CC4CC(CC(C4)C2)C3)C(C)C)cc(OC)c1OC (stereo partly drawn)	?	.
CCCc1ccc(C(O)c2ncc(-c3cccc(F)c3)[nH]2)cc1 (stereo not drawn)	-19%	?
CN1CCC(N(C)c2nc(-c3ccc([N+](=O)[O-])cc3)nc3ccccc23)CC1	10µM*	?
COc1ccc(Cn2cc(CN3CC(N4CCN(CCN(C)C)CC4)CS3(=O)=O)nn2)cc1 (stereo not drawn)	-4%	8%
CCOc1ccc(S(=O)(=O)NCCC(=O)NCC(C)(C)N2CCOCC2)cc1	-9%	-17%
C=C(C)COc1ccc2c3c(c(=O)oc2c1OCC(=C)C)CCC3	-20%	-1%
COc1cccc(CNc2ccc(F)c(Cl)c2)c1	-7%	-7%
Cc1ccccc1OCC(=O)NNC(=O)c1ccoc1C	-16%	-15%
COc1cccc(CNC(=O)CCSCc2ccccc2F)c1	7%	-2%
COc1ccc(CCN2C(=O)CC(NCc3ccc4c(c3)OCO4)C2=O)cc1OC (stereo not drawn)	-20%	.
CN1[C@H]2CC[C@@H]1C(C(=O)N1CCOCC1)=C(O)C2	5%	i
Cc1ccc2nc3c(cc(S(=O)(=O)c4ccccc4)c(=N)n3C3CCCC3)c(=O)n2c1	-6%	-8%
CN(C)CP(=O)(O)CN(C)C=O	-6%	.
CC(Sc1ncc(S(=O)(=O)c2ccc(C(C)C)cc2)c(N)n1)C(=O)Nc1ccccc1 (stereo not drawn)	?	?
SMILES	VACV Venus inh	Vaccinia mCherry
CN(CC(=O)OCC(=O)Nc1ccccc1)S(=O)(=O)c1ccc(Cl)cc1	-13%	-20%
O=C(Oc1ccc([N+](=O)[O-])cc1)c1cncc(Br)c1	-7%	i
COc1ncccc1C(=O)NC1CCCc2c1cnn2-c1cc(C)cc(C)c1 (stereo not drawn)	-3%	-9%
O=C(CI)c1ccc(Cl)cc1	-10%	-7%
N=C1C(=O)OCC1c1ccccc1NC(=O)CN1CCCCC1 (stereo not drawn)	-8%	i
O=C(NC(=S)N1CCN(c2ccccn2)CC1)c1ccco1	-8%	i
c1cncc(CNC2CCCCC2)c1	9%	i
CC(=O)Nc1ccc(NC(=O)CS(=O)(=O)c2cn(CC(=O)N3CCCC3)c3ccccc23)cc1	-10%	-14%
CCOc1ccccc1CN1CCN(C/C=C/c2ccc(OC)cc2)CC1CCO (stereo not drawn)	-13%	?
Cc1ccc(S(=O)(=O)N2CCN(c3nc(-c4cnccn4)nc4ccccc34)CC2)cc1	-10%	-15%
Cc1ccc2nc(-c3ccco3)c(CC(C)(C)C)n2c1	-13%	4%
Cc1ccc(-c2ccc(CN3C(C(C)C)C(=O)N(Cc4cn(Cc5ccco5)nn4)CCS3(=O)=O)cc2)cc1 (stereo not drawn)	-18%	-26%
CC(=O)c1c(C)n(-c2ccc(C)cc2)c2ccc(OC(=O)COc3ccccc3)cc12	-2%	-12%
CN(C)CCN1C(=O)C(=O)/C(=C(/O)c2ccc(OCc3ccccc3)cc2)C1c1ccncc1 (stereo not drawn)	-3%	.
O=C(c1ccc2c(Cl)c3c(nc2c1)CCCC3)N1CCN(c2ccc(Cl)cc2)CC1	-19%	-26%
CCOC(=O)c1c(NC(=O)Cc2ccccc2)sc2c1CCN(CC)C2	-14%	29%
c1ccc(-c2nnc(SCC3CCCCO3)nc2-c2ccccc2)cc1 (stereo not drawn)	-15%	-9%
COc1ccc(C(=O)NC(C)c2nc3ccccc3n2C)cc1OC (stereo not drawn)	-8%	-14%
Cc1cc(Nc2cc(C(=O)O)ccc2C)n2ncnc2n1	1%	-10%
CCOC(=O)C1CCN(C(c2cccc(F)c2)c2c(O)cc(C)n(CCOC)c2=O)CC1 (stereo not drawn)	-2%	-5%
O=C1NC2(CCCCC2)C(=O)N1/N=C/c1ccc(O)cc1O	-19%	-12%
Cc1cccc(Cn2ccn(Cc3ccc(Cl)cc3)c(=O)c2=O)c1	-5%	-2%
COc1cccc(C(=O)Nc2ccc3c(c2)OC[C@H](C)N(C(=O)C2CCCC2)C[C@@H](C)[C@@H](OC)CN(C)C3=O)c1	-21%	-19%
O=C(NC(=O)N1CCN(c2cccc(Cl)c2)CC1)c1ccc(Cl)cc1	?	-24%
Cc1ccc(CNC(=O)C(=O)NCC(c2cccs2)S(=O)(=O)c2ccccc2)cc1 (stereo not drawn)	-8%	i
SMILES	VACV Venus inh	Vaccinia mCherry
Cc1ccc2c(CC(=O)Nc3c(C(=O)c4ccc(F)cc4)oc4ccccc34)coc2c1	-8%	-8%
CCc1cccc2c1NC(=O)C2(O)N1CCCC(C)C1 (stereo not drawn)	-10%	-20%
COC(=O)c1ccc(CNC(=O)c2ccc(S(=O)(=O)N3CCCC(C)C3)cc2)cc1 (stereo not drawn)	-4%	-19%
Cc1ccc(NC(=O)CNC(=O)c2ccc(Br)o2)nc1	-9%	-9%
COc1ccc(-n2c(Cc3cccn3C)nnc2SCC(=O)Nc2ccc(C)cc2)cc1	-2%	-10%
Cc1c(C)n2c(SCC(=O)Nc3ccc4c(c3)OCCO4)nnc2[nH]c1=O	-6%	-12%
Cn1c(COc2ccccc2)nnc1SCC(=O)NNC(=O)C1CCCCC1	-10%	-14%
S=C(Nc1cccc2ccccc12)NN1CCCCCC1	-15%	-23%
N#Cc1ccc(NC(=O)c2sc3cc(C(F)(F)F)cnc3c2-c2cccs2)cc1	-13%	.
COc1cccc(CNC(=O)[C@@H]2CCCN2)c1	4%	-10%
CSc1ccc(CCNC(=O)c2cc(C)nc3c2c(C)nn3-c2cccc(F)c2)cc1	?	-30%
O=C(COc1ccc2ccccc2c1)Nc1cccc(C(=O)Nc2ccccc2C(=O)O)c1	-4%	-23%
CSCCC(NS(=O)(=O)c1ccc2c(c1)oc(=O)n2C)C(=O)NCc1ccc(F)cc1 (stereo not drawn)	7%	-4%
Cc1ccc(O)c(C(=O)c2cnc3c(c2)COc2ccccc2-3)c1	-11%	-12%
CCOC(=O)c1c(C)[nH]c(N=Nc2cccc(C)c2)c1C	-7%	i
Nn1cnn(Cc2ccccc2)c1=S	1%	-13%
COc1ccccc1OCCN1C(=O)S/C(=C\c2ccco2)C1=O	9%	.
CS(=O)(=O)N1CCN(c2ccc(NC(=O)c3ccc(Br)o3)cc2)CC1	-4%	-13%
COc1ccc(C(=O)N2N=C(c3cccs3)CC2c2ccccc2O)cc1 (stereo not drawn)	-22%	-14%
COc1ccc(C(CCNCc2ccccc2F)c2ccc(F)cc2)cc1 (stereo not drawn)	-10%	-15%
Cc1cc(=O)[nH]c2ccc(Cl)cc12	-2%	-23%
COc1ccc(O)c(C(=O)c2cnc3c(c2)c(=O)[nH]c(=O)n3C)c1	-13%	?
Cc1ccc(SCC(=O)Nc2ccc3c(c2)OCCO3)cc1	-5%	-7%
COc1ccccc1/C=C/C=N/n1c(-c2ccncc2)n[nH]c1=S	-13%	-18%
COc1ccc(CCNC(=O)CNC(=O)c2ccccc2Br)cc1OC	-1%	6%
SMILES	VACV Venus inh	Vaccinia mCherry
Cc1cc(C)c2nccc(C)c2c1	-9%	-12%
COCC(C)NC(=O)c1cc(S(=O)(=O)N2CCCCC2)ccc1N1CCOCC1 (stereo not drawn)	-12%	-10%
O=C(CSc1c2c(nc3cc(Cl)ccc13)CCCC2)NCc1ccco1	6%	-15%
COc1ccc(/C=N\NC(=O)c2nn(C)cc2Cl)cc1CN1CCOCC1	-1%	-13%
COc1ccc(-n2c(=S)[nH]c3cc(C(=O)N(C)Cc4ccccc4)ccc3c2=O)cc1	-8%	0%
CCCCn1c(N)c(N(Cc2ccccc2OC)C(=O)C(C)Oc2ccc(Br)cc2)c(=O)[nH]c1=O (stereo not drawn)	1%	-14%
CCNc1nc(SCc2ccccc2)nc(N2CCOCC2)n1	-16%	.

Of the compounds above, these have an aryl thioether with sulfur outside any ring.
SMILES	VACV Venus inh	Vaccinia mCherry
CCSc1nc2sc3c(c2c(=O)n1-c1ccc(C)c(Cl)c1)CCN(C(C)=O)C3	0%	-5%
O=C(CSc1nccn1Cc1ccc(F)cc1)NCc1ccccc1	-9%	i
CCSc1nc2c(c(=O)[nH]c(=O)n2C)n1CC(O)COc1ccccc1 (stereo not drawn)	-14%	?
CC(Sc1ncc(S(=O)(=O)c2ccc(C(C)C)cc2)c(N)n1)C(=O)Nc1ccccc1 (stereo not drawn)	?	?
c1ccc(-c2nnc(SCC3CCCCO3)nc2-c2ccccc2)cc1 (stereo not drawn)	-15%	-9%
COc1ccc(-n2c(Cc3cccn3C)nnc2SCC(=O)Nc2ccc(C)cc2)cc1	-2%	-10%
Cc1c(C)n2c(SCC(=O)Nc3ccc4c(c3)OCCO4)nnc2[nH]c1=O	-6%	-12%
Cn1c(COc2ccccc2)nnc1SCC(=O)NNC(=O)C1CCCCC1	-10%	-14%
CSc1ccc(CCNC(=O)c2cc(C)nc3c2c(C)nn3-c2cccc(F)c2)cc1	?	-30%
Cc1ccc(SCC(=O)Nc2ccc3c(c2)OCCO3)cc1	-5%	-7%
O=C(CSc1c2c(nc3cc(Cl)ccc13)CCCC2)NCc1ccco1	6%	-15%
CCNc1nc(SCc2ccccc2)nc(N2CCOCC2)n1	-16%	.

Compound activity as filed in PubChem BioAssay.

Compounds were not picked by outcome; 0.86% or so of the library scored in one or more.
